Arbovirus inh: blocks arbovirus infection | 200,000 tested, 0.37% active | inhibition, % at 10 µM | arbovirus infection cell-based antiviral screen | AID 1251;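 active = inhibition from about 30%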;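 note: bluetongue infection of BSR cells; cell survival read as ATP light after 72 h; 0% = infected wells without compound and 100% = uninfected wells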
Mtb betalactam: beta-lactam sensitization of Mtb H37Rv; AID 434955; 330,000 tested, 0.27% active; M. tuberculosis H37Rv growth with meropenem, percent inhibition; hits of this screen are not shown here; inhibition, % at 25 µM;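 active = about 74% or more and at least 40 points above the plate without the antibiotic, then above 30% in a dose series; inconclusive = first-round hits that could not be retested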;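 note: growth measured after seven days incubation then overnight dye step; 0% = bacteria only wells and 100% = bacteria with antibiotic; twin plates without the antibiotic show which effects depend on it; some results filed as inactive read as strong as hits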
YopH PTP inh: YopH (Yersinia) phosphatase inhibition. fluorescence Ex485/Em525. inhibition, %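 (about 10 µM by stock and volumes)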. 140,000 tested, 0.16% active. AID 898;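 active = inhibition of 50% or more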;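 note: controls were vehicle for no effect and minimum signal wells for full effect; inactives centre near -20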
RecA intein inh: blocks M. tuberculosis RecA intein splicing; AID 2221; inhibition, %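 (about 9 µM by stock and volumes)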; P9WHJ3; 290,000 tested, 0.75% active; cell-free RecA intein splicing, fluorescence; in the data active = inhibition above about 30%; inconclusive = no clear call, values can overlap the other calls;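 note: 0% = vehicle wells and 100% = reference inhibitor control wells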
Target sequence (P9WHJ3 whole entry, looked up): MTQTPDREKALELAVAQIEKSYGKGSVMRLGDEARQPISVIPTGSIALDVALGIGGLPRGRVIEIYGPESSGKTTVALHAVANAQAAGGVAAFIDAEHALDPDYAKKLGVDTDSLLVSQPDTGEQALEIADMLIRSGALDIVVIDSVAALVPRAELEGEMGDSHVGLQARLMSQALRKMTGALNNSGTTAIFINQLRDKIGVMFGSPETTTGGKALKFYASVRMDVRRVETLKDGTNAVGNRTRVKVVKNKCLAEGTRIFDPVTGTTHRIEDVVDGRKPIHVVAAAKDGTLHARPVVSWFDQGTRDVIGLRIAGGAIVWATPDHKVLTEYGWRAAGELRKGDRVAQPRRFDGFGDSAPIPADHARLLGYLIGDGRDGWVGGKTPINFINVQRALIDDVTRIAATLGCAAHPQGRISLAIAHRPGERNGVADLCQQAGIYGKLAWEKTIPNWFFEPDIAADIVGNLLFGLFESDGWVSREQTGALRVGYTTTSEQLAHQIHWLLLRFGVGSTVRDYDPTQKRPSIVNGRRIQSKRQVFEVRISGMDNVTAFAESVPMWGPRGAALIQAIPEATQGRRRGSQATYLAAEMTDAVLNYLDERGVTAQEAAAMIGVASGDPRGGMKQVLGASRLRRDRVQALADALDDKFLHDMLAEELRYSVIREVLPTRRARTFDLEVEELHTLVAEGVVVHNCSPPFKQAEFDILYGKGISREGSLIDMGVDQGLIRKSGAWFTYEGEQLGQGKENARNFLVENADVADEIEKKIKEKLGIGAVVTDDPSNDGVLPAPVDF
Mtb H37Rv: M. tuberculosis H37Rv growth inhibitors, H37Rv strain (AID 1626); M. tuberculosis H37Rv growth inhibition; higher % means a stronger effect; inhibition, % at 10 µM; hits with a dose series show IC50 in µM; 220,000 tested, 0.95% active;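 active = confirmed in a dose series; inconclusive = inhibition above 80% but not taken into the dose series; inactive = below 80% or under 30% at every dose of the series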;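 note: bacteria incubated seven days before Alamar blue readout; 0% = bacteria only wells and 100% = bacteria with antibiotic wells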
Arbovirus inh repeat: recorded beside Arbovirus inh, whose call it bears; inhibition, %; measured here: 10K subset replicate screen; many hits read low in the repeat;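 first of two repeat runs on a subset; 0% = infected and 100% = uninfected wells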
Active calls of the source: *. Some of the compounds tested; rates above refer to the full screens.

A first look, two compounds:
O=C(c1ccccc1Br)N1CCN(c2ncccn2)CC1 was read as Mtb betalactam 2 and RecA intein inh -1.4.
For c1ccc(CN2CCC(N=C3NN=C(c4ccc5c(c4)OCCO5)CS3)CC2)cc1 the results were Arbovirus inh -7, Mtb betalactam 92, RecA intein inh -1.1 and Mtb H37Rv 18µM*.

The whole of this part, repeating the preview:
O=C(c1ccccc1Br)N1CCN(c2ncccn2)CC1 was read as Mtb betalactam 2 and RecA intein inh -1.4.
For c1ccc(CN2CCC(N=C3NN=C(c4ccc5c(c4)OCCO5)CS3)CC2)cc1 the results were Arbovirus inh -7, Mtb betalactam 92, RecA intein inh -1.1 and Mtb H37Rv 18µM*.
Screening Cc1cc(C)cc(NC(=O)CN(C)S(=O)(=O)c2cccc3nsnc23)c1 returned Arbovirus inh -6, Mtb betalactam -5, YopH PTP inh -33 and Mtb H37Rv -6%.
Screening COc1ccc(C)cc1Nc1n[n+](-c2ccccc2)c(-c2ccc(NC(C)=O)cc2)s1 returned Mtb betalactam 18 and RecA intein inh 0.6.
Screening CCC(=O)NC(=S)NNC(=O)c1ccc([N+](=O)[O-])cc1 returned Arbovirus inh -12, Mtb betalactam 0, YopH PTP inh -39, RecA intein inh -12 and Mtb H37Rv -2%.
For COC(=O)c1cc(CNC(=O)Cc2ccsc2)ccc1OC the results were Mtb betalactam 3 and RecA intein inh 2.6.
Screening CCn1c(C2CC(=O)N(c3ccc(C)c(C)c3)C2)nc2ccccc21 (centres undefined) returned Arbovirus inh 17, Mtb betalactam -9, YopH PTP inh -20, RecA intein inh 1.4, Mtb H37Rv 1% and Arbovirus inh repeat -2.
For O=C(NC1CC1)c1ccc(-n2cccc2)cc1 the results were Arbovirus inh 11, Mtb betalactam -4, RecA intein inh -0.9 and Mtb H37Rv 3%.
Screening CC1=C(N2CCOCC2)CCC1=O returned Mtb betalactam -2, RecA intein inh -1.5 and Mtb H37Rv -1%.
Screening CCc1nc(NCCCN2CCOCC2)c2oc3ccccc3c2n1 returned Arbovirus inh 4, Mtb betalactam -11, YopH PTP inh -23, RecA intein inh -0.1 and Mtb H37Rv -3%.
For O=C(c1ccc(Cl)cc1)C1CCN(Cc2ccccc2)CC1 the results were Mtb betalactam -3 and RecA intein inh 1.8.
NC(=O)c1cc[n+](CC2=C(C(=O)O)N3C(=O)[C@@H](NC(=O)C(c4ccccc4)S(=O)(=O)[O-])[C@H]3SC2)cc1 (some centres undefined) was read as Arbovirus inh 3, Mtb betalactam 1, YopH PTP inh -46, RecA intein inh -4.2 and Mtb H37Rv -5%.
For CC12CN(Cc3ccccc3)CC(C)(CN(Cc3ccccc3)C1)C2=NO the results were Arbovirus inh -1, Mtb betalactam -5, YopH PTP inh -38, RecA intein inh 4.7 and Mtb H37Rv 1%.
O=C(Cn1cnc([N+](=O)[O-])n1)N/N=C/c1ccc(O)cc1O was read as Arbovirus inh -2, Mtb betalactam -9, RecA intein inh -2.8 and Mtb H37Rv 2%.
Screening CC(=O)N1CCN(C(=O)c2ccc(Cl)c(NC(=O)c3cccs3)c2)CC1 returned Mtb betalactam -3 and RecA intein inh -2.3.
Screening CCOC(=O)N1CCN(C(=O)COc2ccccc2[N+](=O)[O-])CC1 returned Arbovirus inh 2, Mtb betalactam 5, RecA intein inh 3.4 and Mtb H37Rv 2%.
CCCCCOc1ccc(C(=O)NCC2(c3ccccc3)CCOCC2)cc1 was read as Arbovirus inh -18, Mtb betalactam 63, YopH PTP inh -15, RecA intein inh 8.8 and Mtb H37Rv 2%.
Screening CCN(CC(=O)Nc1ccccc1C(F)(F)F)C(=O)CCOc1ccccc1C returned Mtb betalactam -8 and RecA intein inh 0.0.
CC(C)(C)NC(=O)c1ccnc(C(C)(C)C)c1 was read as Arbovirus inh 6, Mtb betalactam -10, YopH PTP inh -28, RecA intein inh -0.7 and Mtb H37Rv -2%.
For O=C(NCCS(=O)c1ccc(Cl)cc1)c1cccc(Cl)c1 (centres undefined) the results were Arbovirus inh -2, Mtb betalactam -6, RecA intein inh -0.1 and Mtb H37Rv -5%.
COc1ccccc1CNS(=O)(=O)CC12CCC(CC1=O)C2(C)C (centres undefined) was read as Mtb betalactam 12 and RecA intein inh -0.8.
CCOc1ccc(Nc2cc(Nc3ccccc3OCC)nc(C=C(C#N)C#N)n2)cc1 was read as Mtb betalactam -2, RecA intein inh -0.3 and Mtb H37Rv -3%.
`CCOC(=O)C(NC(=O)NCc1ccccc1)(OCC)C(F)(F)F` (centres undefined) gave Arbovirus inh -10, Mtb betalactam -1, YopH PTP inh -31, RecA intein inh 4.7 and Mtb H37Rv -2%.
O=C(Nc1ccc(CSc2ccccc2)cc1)c1ccccc1 was read as Arbovirus inh 1, Mtb betalactam -9, RecA intein inh 3.5 and Mtb H37Rv -2%.
Screening N#Cc1ccc2ccn(CC(=O)NCc3ccco3)c2c1 returned Arbovirus inh -2, Mtb betalactam -3, YopH PTP inh 10, RecA intein inh -2.0 and Mtb H37Rv 56%.
`O=C(Nc1ccccn1)C1COc2ccccc2O1` (centres undefined) gave Arbovirus inh -2, Mtb betalactam -4, YopH PTP inh -12, RecA intein inh -5.8 and Mtb H37Rv -7%.
`O=C(C1=C[C@H](c2ccccc2)C[C@H](OCCCCO)O1)N1CCN(Cc2ccc3c(c2)OCO3)CC1` gave Arbovirus inh -5, Mtb betalactam -4 and RecA intein inh -0.5.
For Clc1ccc(CSc2nnc(-c3ccncc3)s2)cc1 the results were Mtb betalactam 5, RecA intein inh -0.5 and Mtb H37Rv 11%.
`O=C(CSc1nnc(-c2ccccc2)n1C1CCCCC1)N1CCCC1` gave Arbovirus inh 2, Mtb betalactam 9, YopH PTP inh -10, RecA intein inh 0.2 and Mtb H37Rv -2%.
For O=C(c1cnn2ccccc12)N(Cc1ccco1)C1CCCC1 the results were Arbovirus inh -4, Mtb betalactam 6, YopH PTP inh -47, RecA intein inh 1.1, Mtb H37Rv 1% and Arbovirus inh repeat -2.
Screening CC(C)(/C=N/O)/[N+]([O-])=C/c1ccccc1 returned Mtb betalactam -2, RecA intein inh -2.0 and Mtb H37Rv -5%.
Screening COc1ccc(Cl)cc1NC(=S)NNC(=O)c1cccs1 returned Arbovirus inh 7, Mtb betalactam 12, RecA intein inh 16 and Mtb H37Rv -7%.
Screening O=C(NCCCNC(=O)c1ccco1)c1cccc(F)c1 returned Mtb betalactam -4 and RecA intein inh -0.4.
For CCCOc1cccc(C(=O)NC(=S)Nc2ccc(N3CCN(C)CC3)cc2)c1 the results were Arbovirus inh 4, Mtb betalactam 30, RecA intein inh -2.6 and Mtb H37Rv 74%.
`CCOc1ccc(CCNC(=O)COC(=O)CNC(=O)c2ccc(Br)o2)cc1OCC` gave Mtb betalactam -3 and RecA intein inh -1.3.
O=C(Nc1cccc2ncccc12)c1ccc(-c2ccc(Cl)cc2Cl)o1 was read as Arbovirus inh 1, Mtb betalactam 15, YopH PTP inh 3, RecA intein inh 0.3 and Mtb H37Rv 9%.
`Cc1ccccc1N(C(=O)Cc1cccs1)C(C(=O)NC1CCCCC1)c1cn(C)nc1C` (centres undefined) gave Arbovirus inh 1, Mtb betalactam 9, YopH PTP inh -14, RecA intein inh -2.5 and Mtb H37Rv 4%.
Screening COc1ccc(NC(=O)CSc2nc3ccccc3nc2N2CCOCC2)cc1 returned Mtb betalactam 11 and RecA intein inh -2.1.
CC(C)n1c(N2CCN(C(=O)Nc3ccc(F)cc3F)CC2)nc2ccccc21 was read as Arbovirus inh 1, Mtb betalactam 2, YopH PTP inh 10, RecA intein inh 1.3 and Mtb H37Rv -8%.
For CCOC(=O)c1cnc2ccc(C(=O)OC)cc2c1NCCN1CCOCC1 the results were Arbovirus inh -7, Mtb betalactam 5, YopH PTP inh -20, RecA intein inh 4.3, Mtb H37Rv 0% and Arbovirus inh repeat 0.
Screening CNC(=O)c1c(NC(=O)CCS(=O)(=O)c2ccc(Cl)cc2)sc2c1CCN(C(=O)OC)C2 returned Mtb betalactam -4 and RecA intein inh -1.9.
For O=C(N/N=C/c1ccoc1)c1ccccc1F the results were Mtb betalactam 44 and RecA intein inh -2.2.
Screening Cc1sc2nc(C(C)(C)C)oc(=O)c2c1C returned Arbovirus inh -4, Mtb betalactam 82, YopH PTP inh -18, RecA intein inh -1.4 and Mtb H37Rv -4%.
COCCNC(=O)c1onc(CSc2ccc(C)c(C)c2)c1C(=O)O was read as Arbovirus inh 10, Mtb betalactam 7, YopH PTP inh -7, RecA intein inh -0.8 and Mtb H37Rv -16%.
O=C(Nc1nnc(C2=COCCO2)o1)c1ccc(Cl)cc1 was read as Arbovirus inh -21, Mtb betalactam 95, YopH PTP inh -20, RecA intein inh 6.0 and Mtb H37Rv 2.7µM*.
`O=C(Nc1ccc(S(=O)(=O)Nc2cnc3ccccc3n2)cc1)c1ccc(F)cc1` gave Mtb betalactam -8 and RecA intein inh 3.0.
Cc1c(NC(=O)CN2CCC(C(N)=O)CC2)cccc1[N+](=O)[O-] was read as Arbovirus inh 14, Mtb betalactam -5, RecA intein inh -1.3 and Mtb H37Rv 2%.
For Cc1nn(-c2ccccc2)c(Cl)c1C(=O)NCCCCNC(=O)c1c(C)nn(-c2ccccc2)c1Cl the results were Arbovirus inh -18, Mtb betalactam -4, YopH PTP inh -5, RecA intein inh 0.3 and Mtb H37Rv -13%.

3 compounds out of the list, arranged by number of heavy atoms, high to low.
CCCCCOc1ccc(C(=O)NCC2(c3ccccc3)CCOCC2)cc1 was read as Arbovirus inh -18, Mtb betalactam 63, YopH PTP inh -15, RecA intein inh 8.8 and Mtb H37Rv 2%.
Screening CCn1c(C2CC(=O)N(c3ccc(C)c(C)c3)C2)nc2ccccc21 (centres undefined) returned Arbovirus inh 17, Mtb betalactam -9, YopH PTP inh -20, RecA intein inh 1.4, Mtb H37Rv 1% and Arbovirus inh repeat -2.
`CCOC(=O)C(NC(=O)NCc1ccccc1)(OCC)C(F)(F)F` (centres undefined) gave Arbovirus inh -10, Mtb betalactam -1, YopH PTP inh -31, RecA intein inh 4.7 and Mtb H37Rv -2%.

Next section.
Screening COc1ccc(C(=O)Oc2ccc(=O)n(-c3ccccc3)n2)cc1 returned Arbovirus inh 3, Mtb betalactam -4, YopH PTP inh -11, RecA intein inh 0.6 and Mtb H37Rv -11%.
Screening CCCCCCNc1c([N+](=O)[O-])c(=O)sc2ccccc12 returned Arbovirus inh 2, Mtb betalactam -4, RecA intein inh -4.1 and Mtb H37Rv 3%.
CN1CCN(c2ccc(S(=O)(=O)N3CCCCC3)cc2NC(=O)/C=C/c2ccc(OC(F)F)cc2)CC1 was read as Mtb betalactam 38 and RecA intein inh -1.3.
`COc1ccc(-c2nc(CSCC(=O)NCCCN3CCCC3=O)c(C)o2)cc1OC` gave Mtb betalactam 2 and RecA intein inh -0.1.
For CCOC(=O)c1cccc(N2C(=O)C3C4C=CC(CC4)C3C2=O)c1 (centres undefined) the results were Mtb betalactam 6 and RecA intein inh -2.5.
For COCCCNC(=O)/C(C#N)=C/c1c(N2CCN(c3ccccc3)CC2)nc2c(C)cccn2c1=O the results were Mtb betalactam 0 and RecA intein inh -18.
`O=C(NCC1CCN(Cc2ccc(Cl)cc2)CC1)C1CCCN(c2ncnc3c2nc2n3CCCCC2)C1` (centres undefined) gave Mtb betalactam 28 and RecA intein inh -9.6.
For N#CC(C#N)=c1ccc2c(c1)N1C3=C(CCCC3)CC3CCCCC31N=2 (centres undefined) the results were Arbovirus inh -19, Mtb betalactam 101, YopH PTP inh -40, RecA intein inh 29 and Mtb H37Rv inconclusive.
Screening CCCOc1ccc(-c2cc(C(=O)NCC3CCCO3)c3ccccc3n2)cc1 (centres undefined) returned Arbovirus inh -1, Mtb betalactam 89, RecA intein inh 4.6 and Mtb H37Rv 10%.
Screening COCCn1c(N)c(C(=O)NCC2CCCO2)c2nc3ccccc3nc21 (centres undefined) returned Arbovirus inh -9, Mtb betalactam -6, YopH PTP inh 3, RecA intein inh inactive and Mtb H37Rv -2%.
`COc1cc(/C=N/S(=O)(=O)c2ccccc2)cc(OC)c1O` gave Mtb betalactam -11 and RecA intein inh -1.4.
CC(C)CC(=O)Nc1ccc2c(c1)nc(CCN1CCOCC1)n2C was read as Mtb betalactam 2 and RecA intein inh -0.6.
For Cc1ccc(CNC(=O)C2CCN(S(=O)(=O)c3c(C)noc3C)CC2)cc1 the results were Arbovirus inh 7, Mtb betalactam -5, YopH PTP inh 2, RecA intein inh 1.5 and Mtb H37Rv 3%.
`O=C(N/N=C/c1cc([N+](=O)[O-])ccc1N1CCNCC1)c1ccc([N+](=O)[O-])cc1` gave Arbovirus inh -9, Mtb betalactam -5, YopH PTP inh -32, RecA intein inh 1.1 and Mtb H37Rv 0%.
Screening CCOC(=O)c1c(N/N=C/c2ccncc2)n[nH]c1C returned Arbovirus inh 2, Mtb betalactam -11, YopH PTP inh -22, RecA intein inh -3.0 and Mtb H37Rv -1%.
For Cc1ccc(S(=O)(=O)N(C)C)cc1NC(=O)COC(=O)CCC1CCCCC1 the results were Mtb betalactam -9 and RecA intein inh -0.7.

Source: PubChem BioAssay (several laboratories)
